Bioassay records deposited in PubChem BioAssay by National Center for Advancing Translational Sciences (NCATS).
D2 potentiator = human D2 receptor positive allosteric modulation | potentiation, % (test concentration not listed) | P14416 | DiscoveRx D2 beta-arrestin cells, luminescence, 90 min; 100% = 57 uM dopamine signal | 360,000 tested, 0.23% active; active = potentiation of 50% or more; inconclusive = 30% to 50%; inactive = 30% or less;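 also: compound concentration not given in the record; tested on top of an EC20 dose of dopamine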
Target sequence (P14416 whole entry, looked up): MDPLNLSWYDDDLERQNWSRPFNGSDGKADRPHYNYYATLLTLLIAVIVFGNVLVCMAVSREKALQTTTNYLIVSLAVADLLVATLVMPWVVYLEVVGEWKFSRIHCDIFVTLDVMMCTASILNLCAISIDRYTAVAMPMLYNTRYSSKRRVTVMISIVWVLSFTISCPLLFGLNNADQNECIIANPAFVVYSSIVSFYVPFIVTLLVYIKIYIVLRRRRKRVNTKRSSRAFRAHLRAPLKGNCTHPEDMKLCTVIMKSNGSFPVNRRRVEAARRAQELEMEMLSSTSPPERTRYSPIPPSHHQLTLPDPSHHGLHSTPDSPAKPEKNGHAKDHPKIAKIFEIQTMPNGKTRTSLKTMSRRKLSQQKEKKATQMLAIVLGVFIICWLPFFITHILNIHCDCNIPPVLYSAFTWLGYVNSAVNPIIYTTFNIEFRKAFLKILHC
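PathHunter D2 cells, attached overnight at 37 deg C, received compound in DMSO plus dopamine at EC20 (50 nM final) for 90 min at 37 deg C. Beta-arrestin recruitment was read as luminescence after 1 h with detection reagent at ambient temperature.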
Six1-Eya2 blk = blocks human Six1 binding to Eya2. Q15475+O00167. AlphaScreen GST-Six1/His-Eya2 binding, biochemical; stronger effect = lower value; control for the full effect not named in the record. activity change, % (test concentration not listed). 360,000 tested, 0.56% active. AID 651725; in the data active = activity change below about -65%; inconclusive = about -30% to -65%; inactive = above about -30%; also: % is scaled to controls: 0 for no effect and ±100 for the full control effect; compound concentration not given in the record
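AlphaScreen luminescence read after one hour at 37 °C in darkness. Pin-transferred compounds met GST-Six1 and His-Eya2 protein (5X stock 250 nM/500 nM) plus glutathione donor and Ni-chelate acceptor beads (5X, 50 ug/mL).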
TRPML1 agonist = human mucolipin-1 channel agonism; Q9GZU1; TRPML1-expressing cells, Ca2+ dye fluorescence, FDSS; host cell line not named in the record; reference of the full effect not given here; activation, % (no concentration beside the values); 410,000 tested, 0.12% active; in the data active = activation above about 50%; inconclusive = about 30% to 50%; inactive = below about 30%; also: 0% is about no effect; the text of the record puts the active cut at 80%
Target sequence (Q9GZU1 whole entry, looked up): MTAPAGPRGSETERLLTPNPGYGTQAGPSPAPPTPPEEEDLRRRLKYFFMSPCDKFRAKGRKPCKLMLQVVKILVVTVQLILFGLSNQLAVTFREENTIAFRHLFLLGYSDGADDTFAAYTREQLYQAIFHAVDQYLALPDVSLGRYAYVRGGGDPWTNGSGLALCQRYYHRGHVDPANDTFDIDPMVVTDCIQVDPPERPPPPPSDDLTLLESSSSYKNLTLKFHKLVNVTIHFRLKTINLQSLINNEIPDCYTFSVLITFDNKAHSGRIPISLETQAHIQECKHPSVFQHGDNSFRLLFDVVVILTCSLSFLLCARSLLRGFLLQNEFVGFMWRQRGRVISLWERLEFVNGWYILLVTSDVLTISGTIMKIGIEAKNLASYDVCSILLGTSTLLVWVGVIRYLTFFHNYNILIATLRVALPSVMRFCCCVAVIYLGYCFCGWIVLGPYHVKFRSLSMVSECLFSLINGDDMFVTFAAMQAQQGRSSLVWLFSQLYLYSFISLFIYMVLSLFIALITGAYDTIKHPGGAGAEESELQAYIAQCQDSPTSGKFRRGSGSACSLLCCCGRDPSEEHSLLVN
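Kinetic FDSS Ca2+ read in Tet-induced TRPML1-DL cells (ABD Ca8 dye plus quencher, 45-90 min RT loading): baseline, then compound, then 110 s agonist window; EC80 agonist 54-4 at 4uM final added afterwards for a 110 s antagonist window.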
TRPML1 blocker = blocks the human TRPML1 channel. Q9GZU1. TRPML1-inducible cells, Ca2+ dye fluorescence, FDSS; stronger effect = lower value; inhibition of EC80 agonist-evoked calcium signal. activity change, negative = inhibition, % (concentration not given with the values). 390,000 tested, 0.02% active. AID 624415; in the data active means activity change below about -50%; inconclusive means about -30% to -50%; inactive means above about -30%;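 also: stimulus is agonist 54-4 at its EC80 concentration; % is scaled to controls: 0 for no effect and ±100 for the full control effect; compound concentration not given in the record; the text of the record puts the active cut at -80%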
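TRPML1-DL cells, Tet-induced overnight (~16 h, 37 °C) at 1,500 cells/well, were loaded with Ca8 no-wash dye plus quencher for 45-90 min at room temperature. Compounds were pinned during FDSS kinetic reading; agonist 54-4 at EC80 (4 uM final) then added.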
CtBP-E1A inh = inhibitors of CtBP/E1A interaction; 340,000 tested, 0.49% active; AlphaScreen GST-E1A/His-CtBP binding, 1536-well; stronger effect = lower value; control for the full effect not named in the record; activity change, % (test concentration not listed); AID 651724; in the data active means activity change below about -65%; inconclusive means about -30% to -65%; inactive means above about -30%; also: % is scaled to controls: 0 for no effect and ±100 for the full control effect; compound concentration not given in the record
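AlphaScreen with 125 nM GST-E1A and 125 nM His-CtBP (5X stocks) in Tris pH 8.0, 300 mM NaCl, BSA, Tween 20, TCEP. Compounds preincubated 2 h at 37 deg C, then glutathione donor/nickel acceptor beads added for 1 h at 37 deg C in dark.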
TRPV1 potentiator = enhances activation of the human vanilloid receptor TRPV1; AID 540277; 320,000 tested, 0.02% active; Q8NER1; potentiation, % at 8.33 µM; TRPV1-expressing cells, Fluo-8 calcium influx, capsaicin EC20 potentiation; host cell line not named in the record; control for the full effect not named in the record; active means potentiation above 80%; inconclusive means 30% to 80%; inactive means below 30%; also: 0% is about no effect
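Cells expressing TRPV1 were dye-loaded with Fluo-8 and read kinetically: 10 s baseline, 3 min after compound (agonist portion), then 2 min after EC20 capsaicin (allosteric enhancer portion). Calcium-bound dye fluorescence at 480/520 nm.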
Numbers without * were called inactive; u = inconclusive; x = not tested or not shown. Rows are unselected (roughly 0.95% active in at least one column).

SMILES | D2 potentiator | Six1-Eya2 blk | TRPML1 agonist | TRPML1 blocker | CtBP-E1A inh | TRPV1 potentiator
Cc1cccc(-c2cc3nc(-c4ccccc4)cc(=O)n3[nH]2)c1 | -12 | -15 | 0.3 | 6 | -2 | -5
COc1cc(S(=O)(=O)N2CCOCC2)ccc1NC(=O)COC(=O)COc1ccccc1 | -4 | 4 | 0.0 | -1 | 6 | 3
CCOc1ccc2c(c1)nc(C)n2C | -4 | -12 | 0.2 | -2 | -19 | -1
Cn1c(=O)c2sc3c(c2n(CC(=O)Nc2ccccc2)c1=O)COC(C)(C)C3 | 2 | 1 | 0.0 | 3 | 2 | -3
O=C(NCCCCCNC(=O)c1ccco1)c1ccco1 | -24 | 13 | -0.7 | -5 | 0 | 3
Cc1cccc(CN(Nc2ccccc2)c2ccccc2)n1 | -8 | -1 | 0.2 | -3 | 1 | x
CN1CCN(c2ccc(CNC(=O)c3ccc(-c4ccc(F)c(F)c4)c4ccoc34)cc2)CC1 | -18 | -18 | 0.0 | x | -25 | x
COc1cccc(NC(=O)CSc2nnc(CNC(=O)c3ccccc3)n2C)c1 | -6 | 0 | 1.4 | 12 | 4 | -2
Cc1cccc2sc(N(CCN3CCOCC3)C(=O)CCS(=O)(=O)c3ccccc3)nc12 | -8 | -2 | 0.0 | -1 | 10 | 1
COc1ccc(NC(=O)CSc2nc3c(c(=O)[nH]2)CCC3)cc1OC | -9 | -5 | -0.9 | 23 | 3 | -3
COc1cc2c(cc1OC)CN(c1nc(CN3CCCC3)nc3sc(C)c(C)c13)CC2 | -11 | -28 | 0.1 | 3 | -17 | u
CCN1C(=O)[C@H]2[C@@H](c3ccc(-c4ccc(F)cc4)c(OC)c3)N[C@@](Cc3ccccc3)(C(=O)OC)[C@H]2C1=O | -6 | -4 | -1.0 | -4 | -2 | x
Cc1ccc(NC(=O)C2CC2C)c(Cl)c1 (stereo unspecified) | -4 | 0 | -0.5 | 23 | 8 | -10
COc1ccc(C2Nc3ccccc3C(=O)N2NC(=O)c2ccccc2)cc1OC (stereo unspecified) | -9 | 9 | 2.5 | 20 | -7 | -1
COc1ccc(OC)c(C(=O)COC(=O)c2cccnc2SC)c1 | 1 | 7 | -0.1 | -8 | 13 | -7
O=C(Nc1ccc(N2CCCC2=O)cc1)c1cccc(F)c1 | -1 | -4 | 0.5 | 39 | -8 | -3
C[C@H]1COC2=C1C(=O)C(=O)c1c2ccc2c1CCCC2(C)C | -4 | u | x | x | -27 | -2
COc1ccc(CNC(=O)CN2CCC(NC(=O)c3ccccc3C)CC2)cc1 | -1 | 1 | -0.3 | 0 | 6 | 3
Cc1cnn(-c2ccc3nnc(-c4ccc(Cl)cc4)n3n2)c1 | -10 | -5 | 0.4 | 39 | 0 | -21
Cc1ccc(-n2nnc3c(=O)n(Cc4cccc(C)c4)cnc32)cc1 | -6 | 2 | -0.4 | -3 | -4 | -25
COc1ccccc1C1CCN(Cc2ccc(Cl)c(Cl)c2)CC1 | -16 | 1 | -0.4 | 2 | -4 | u
c1cc(N2CCCCC2)nc(N2CCCCC2)n1 | -14 | 10 | -0.8 | 6 | -1 | x
CCCc1cc(C(=O)Nc2ccc(C#N)cc2)no1 | -11 | 7 | -0.6 | -2 | 7 | -14
COc1ccc(C(=O)O)cc1NCc1cccnc1 | -1 | 31 | 0.5 | 0 | 4 | 3
Cc1c(-c2ccco2)[n+](=O)c2c(n1[O-])CCCCC2 | 13 | 3 | -0.1 | -2 | 14 | -8

An excerpt from above in order of number of heavy atoms, smallest number first:
SMILES | D2 potentiator | Six1-Eya2 blk | TRPML1 agonist | TRPML1 blocker | CtBP-E1A inh | TRPV1 potentiator
Cc1ccc(NC(=O)C2CC2C)c(Cl)c1 (stereo unspecified) | -4 | 0 | -0.5 | 23 | 8 | -10
Cc1ccc(-n2nnc3c(=O)n(Cc4cccc(C)c4)cnc32)cc1 | -6 | 2 | -0.4 | -3 | -4 | -25
COc1ccc(CNC(=O)CN2CCC(NC(=O)c3ccccc3C)CC2)cc1 | -1 | 1 | -0.3 | 0 | 6 | 3

Going on with the list:
SMILES | D2 potentiator | Six1-Eya2 blk | TRPML1 agonist | TRPML1 blocker | CtBP-E1A inh | TRPV1 potentiator
COc1ccccc1C(=O)OCC(=O)NC(=O)NCc1ccccc1 | -9 | -8 | 0.6 | 2 | -2 | 3
Cc1ccc(C(=O)Nc2ccc(Cl)cc2C)c(Cl)c1 | 10 | -3 | 0.0 | 8 | 16 | -5
O=C(Cc1c(F)cccc1Cl)NNC(=O)c1cccs1 | -2 | 1 | -0.2 | -4 | 7 | x
COc1ccc(S(=O)(=O)N2N=C(C)Oc3ccccc3C2=O)cc1 | 10 | -1 | 0.3 | -16 | 4 | 4
O=C(Cn1nnc(-c2cccs2)n1)N1c2ccccc2Sc2ccc(C(F)(F)F)cc21 | 5 | -5 | 2.1 | 0 | -2 | x
CC1(C)CC(=O)C=C(c2ccc(COC(=O)C3CC3)cc2)C1=O | 2 | -8 | -0.6 | 43 | -3 | x
CC(C)C[C@H](NC(=O)C1CCN(S(=O)(=O)c2ccccc2)CC1)C(=O)NCc1ccncc1 | 6 | 3 | -0.3 | 7 | 6 | 5
Cc1cc(=O)oc2cc(NC(=O)CCC(=O)O)ccc12 | -2 | -1 | 0.3 | 13 | -1 | x
COc1ccc(NC(=O)Nc2ccc(F)cc2F)c(C)c1 | -7 | 3 | -0.8 | 10 | 0 | -4
C/C(=N\NC(=O)c1ccc(NS(=O)(=O)c2cccs2)cc1)c1ccc2ccccc2c1 | -9 | -18 | -0.7 | 42 | -6 | 5
COc1ccccc1-c1nc(C#N)c(N2CCN(C(c3ccccc3)c3ccccc3)CC2)o1 | -8 | 1 | -0.3 | 0 | -1 | 3
COc1cccc(C(=O)CSc2nnc(-c3cc(OC)cc(OC)c3)o2)c1 | -4 | 2 | 0.8 | -5 | 6 | 2
COc1ccc(S(=O)(=O)NCc2ccco2)cc1N(C)S(=O)(=O)c1ccccc1 | -7 | -2 | -0.3 | -18 | -1 | 17
Cc1ccc(C(=O)N2CCc3ccccc32)o1 | -10 | 0 | 2.3 | 1 | -2 | -2
C#CCNC(=O)C1=C[C@@H](C2CCCCC2)C[C@@H](OCCCCO)O1 | -7 | 5 | -0.4 | 6 | 4 | 10
COc1ccc(Nc2nc(-c3sc(N)nc3C)cs2)cc1 | -8 | -27 | -0.5 | 7 | -30 | u
Clc1cccc(/C(Cc2nc3ccccc3[nH]2)=N\Nc2ccccc2)c1 | -4 | 0 | -0.9 | -11 | -13 | -12
CN(C)c1ccc(S(=O)(=O)N2CCCCC2)cc1NC(=O)CN1C(=O)NC2(CCCC2)C1=O | -2 | 9 | 2.5 | -13 | -1 | 15
CCOP(=O)(OCC)C(NC(=O)Nc1ccc(Cl)cc1)c1ccccc1 (stereo unspecified) | -35 | 5 | -0.5 | 1 | 10 | 12
CCC(=O)Nc1cccc(NC(=S)NC(=O)c2ccccc2C)c1 | -4 | 1 | 0.0 | u | -6 | 2
Cc1ccc(C(=O)N2CCC(C)CC2)cc1NC1=NC2CS(=O)(=O)CC2S1 (stereo unspecified) | 1 | 0 | -0.9 | -2 | 3 | -12
Cc1cc(C)c(S(C)(=O)=O)c(Oc2cccc(Cl)c2)n1 | 14 | -3 | 2.5 | 4 | -1 | 9
Cc1ncoc1C(=O)Nc1ccc2c(c1)OCCO2 | -8 | 3 | 0.1 | -3 | 8 | -9
CCOC(=O)C1CCN(C(=O)C2CCN(S(=O)(=O)c3c(C)noc3C)CC2)CC1 | 30 | 0 | -0.1 | -24 | 9 | -5
Cc1ccc(C)c(N(C(=O)Cc2cccs2)C(C(=O)NC2CCCC2)c2ccc(C)o2)c1 (stereo unspecified) | -11 | 0 | 1.8 | 16 | 4 | -11

Other records follow:
SMILES | D2 potentiator | Six1-Eya2 blk | TRPML1 agonist | TRPML1 blocker | CtBP-E1A inh | TRPV1 potentiator
C[C@H](CO)N1C[C@H](C)[C@@H](CN(C)C(=O)Nc2ccc(C(F)(F)F)cc2)Oc2ccc(NC(=O)C3CCCCC3)cc2C1=O | x | -1 | -0.7 | 24 | -3 | x
O=C(O)CCC(=O)Nc1ccc(C(=O)N2CCCCC2)cc1 | -10 | 4 | 1.2 | -18 | 1 | 14
CNC(=O)NNC(=O)c1csc(Cc2c(Cl)sc3ccc(Cl)cc23)n1 | -7 | -1 | 3.6 | 3 | -11 | 4
Cc1ccc(N=C(N)N=C(N)N)c(C)c1 | -2 | 2 | -0.5 | 3 | -2 | -6
Cc1cccc(C)c1Cn1c(C)c(C(=O)NCc2cccc(Cl)c2)sc1=O | -7 | 2 | 0.2 | x | -20 | x
O=C(N=C1SC2CS(=O)(=O)CC2N1c1cccc(Cl)c1Cl)C1CCCO1 (stereo unspecified) | -6 | 2 | 0.1 | 4 | -8 | 7
COC(=O)c1ccc(NC(=O)C2CCCN2S(=O)(=O)c2ccc(OC)cc2)cc1 (stereo unspecified) | -34 | 0 | 0.0 | -19 | 8 | 9
CCOc1ccc(NS(=O)(=O)c2cc(C(=O)N3CCN(c4ccccc4O)CC3)ccc2Cl)cc1 | 18 | -12 | -0.8 | 7 | -4 | u
COc1ccc(-c2nn(-c3ccccc3)cc2C(=O)N2CCN(S(=O)(=O)c3ccccc3C#N)CC2)cc1 | -39 | 0 | 0.4 | -9 | -14 | 1
C=C1CCN([C@@H](CC(C)C)C(=O)NCc2ccc(OC)cc2)S(=O)(=O)c2ccccc21 | -2 | 3 | -1.2 | 11 | -1 | x
O=C1CC(Cc2ccc(Cl)cc2)C(=O)N1c1ccncc1 (stereo unspecified) | 22 | 12 | -0.5 | 15 | 9 | -25
CNc1nc(NCCCN2CCCC2=O)c2sccc2n1 | -5 | 6 | u | x | 6 | x
CC(Oc1ccc(Br)cc1)C(=O)Nc1ccncc1 (stereo unspecified) | -10 | 9 | 5.8 | 21 | 5 | -8
CN1C(=O)[C@H]2[C@@H](/C=C/c3ccccc3)N3C(=O)CN(Cc4ccccn4)C(=O)[C@@]3(C)[C@H]2C1=O | -6 | 5 | 0.4 | 19 | 1 | 14
CCn1c(SCC(=O)Nc2cc(C(C)(C)C)nn2-c2ccccc2)nnc1-c1cccs1 | -9 | -2 | 0.5 | -10 | -7 | 5
O=C(O)C1C2C=CC(C2)C1C(=O)OC1CC2CCC1C2 (stereo unspecified) | -11 | 0 | -0.1 | -30 | -18 | 9
Nc1cc(S(=O)(=O)c2ccc(O)c(N)c2)ccc1O | 2 | -16 | -0.3 | -9 | -6 | -6
Cc1ccc2c(CN(C)Cc3ccc(Cl)cc3Cl)cc(=O)oc2c1 | -8 | 1 | 0.9 | 20 | -12 | 11
CC(=O)Nc1ccccc1C | 0 | 5 | 0.7 | 29 | -9 | 1
CCOc1ncccc1C(=O)Oc1ccc2c(c1)OCO2 | -8 | 11 | -0.3 | -2 | 7 | 6
CCN(CC)C(=O)c1sc(NC(=O)c2ccco2)c(C#N)c1C | -14 | 4 | 0.8 | -7 | -9 | 15
O=C(NN1C(=O)/C(=C/c2ccc(O)c(O)c2)SC1=S)c1ccccc1 | -4 | u | 4.1 | -15 | u | u
